# Assay outcomes: PubChem, ICCB-Longwood Screening Facility, Harvard Medical School
# Sa helicase inh – inhibitors of S. aureus replicative helicase, primary screen, biochemical, fluorescence unwinding readout | replicative DNA helicase (DnaC/DnaB), Staphylococcus aureus | purified S. aureus helicase, fluorescence unwinding assay; about half of the hits fall short of the stated cut | inhibition, %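 (tested at about 80 µM)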 | 120,000 compounds, 0.05% hits;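 active = both duplicates at 50% or more, or one of them with a favoured structure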;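 note: 0% = mean of negative control wells and 100% = mean of positive control wells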
# MgrA-DNA mod – S. aureus MgrA activity modulators, primary screen, biochemical, S. aureus Newman, fluorescence polarization; inhibition, %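 (about 10 µg/mL by stock and volumes)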; 84,000 compounds, 0.13% hits; MgrA-DNA binding;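 active = above 50% in either of two replicates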;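 note: 0% = protein plus DNA without compound and 100% = DNA alone without protein; higher means less MgrA bound to DNA so lower polarization; one replicate is shown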
# * hit, by the source's call; . = no result given; & = joins results of further samples. An excerpt. The share of hits here may be higher or lower than overall.
molecule,MgrA-DNA mod,Sa helicase inh
Cc1ccc(/C=C2/CC(C)C/C(=C\c3ccc(C)o3)C2=O)o1 (stereo unspecified),.,-84
CCC(C(=O)Nc1nn2c(-c3ccccc3)nnc2s1)c1ccccc1 (stereo unspecified),.,-20
CN1C(=O)c2ccc(NC(=O)c3cccc4ccccc34)cc2C1=O,4.5,11
CC(C)c1ccc(S(=O)(=O)c2cc3ccccc3oc2=O)cc1,.,-21
COc1cccc(-n2cc(C(=O)N(Cc3ccccc3)C(C)C)c3ccccc3c2=O)c1,0.3,6
Cc1onc(-c2ccccc2Cl)c1C(=O)N1CCOCC1,1.7,.
COc1c2c(nc3occc13)C(CC=C(C)C)(OC)C(OC(C)=O)CC2 (stereo unspecified),3.0,-12
N#CC1=C(SCC(N)=O)NC(O)(C(F)(F)F)C(C(=O)c2cccs2)C1c1ccccc1Cl (stereo unspecified),.,-18
CCC(=O)Nc1nc2ccc(CC)cc2s1,.,10
CCOc1ccccc1NC(C)=O,.,-1

# More results follow:
molecule,MgrA-DNA mod,Sa helicase inh
N#CC1=C(N)C(C#N)(C#N)C(c2cccnc2)C2CSCC=C12 (stereo unspecified),.,-17
Brc1cccc(-c2nnc3sc(CN4CCc5ccccc5C4)cn23)c1,-8.1,12
COc1cc(OCc2ccccc2)ccc1CN1CCN(c2ccccn2)CC1,-1.4,.
CCCNC(=O)C1CCC(CNS(=O)(=O)c2ccc3c(c2)N(C(C)=O)CCO3)CC1 (stereo unspecified),.,-31
COc1cccc(C(=O)CS)c1,3.0,-2
COC(=O)c1cc2sc(Cl)cc2[nH]1,-2.1,7
CCc1ccc(C2C(C(=O)OC)=CN(CC3CCCO3)C=C2C(=O)OC)cc1 (stereo unspecified),0.0,-3
CCc1ccc(-c2[nH]nc3nc(-c4ccc(O)cc4)cc(C(=O)O)c23)cc1,.,-2
CC1CCCCC1NC(=O)COC(=O)c1ccccc1NCCO (stereo unspecified),.,-1
Nc1nnc(CCCN2C(=O)c3ccccc3C2=O)s1,.,11

# Further entries follow.
molecule,MgrA-DNA mod,Sa helicase inh
O=C(O)/C=C/C=C/c1ccc(Cl)cc1,5.7,-4
CC(C(=O)NCc1ccccn1)N(c1ccccc1)S(C)(=O)=O (stereo unspecified),.,26
C=CCSc1nnnn1-c1ccc(OC(=O)C=C(C)C)cc1,0.2,.
NS(=O)(=O)c1cc(OCC(F)(F)F)ccc1OCC(F)(F)F,-1.1,.
CC(NC(=O)c1cc2ccccc2oc1=O)c1ccccc1 (stereo unspecified),.,-12
CC(C)(C)c1cc(C(F)(F)F)c(C#N)c(=O)[nH]1,-0.1,.
CC1(C)CC(=O)C=C(Sc2nc3ccccc3o2)C1,4.0,.
Cc1ccc2cccc(OC(=O)c3ccccc3F)c2n1,.,19
COc1cc(NC(=O)OC(C)(C)C)cc(OC)c1OC,0.3,.
Cc1ccc(N2CCN(c3cnn(-c4nc5ccccc5s4)c(=O)c3N(C)C)CC2C)cc1 (stereo unspecified),-1.2,-5

# Continued:
molecule,MgrA-DNA mod,Sa helicase inh
CC(C)C(N)c1ccccc1 (stereo unspecified),.,1
O=C(Cn1nnc2ccccc21)Nc1ccc2ccccc2c1,2.1,-16
Cc1ccc(N2C(=O)C(c3ccccc3)C(N3CCSCC3)C2=O)cc1 (stereo unspecified),-2.0,.
O=C(/C=C/c1ccc2c(c1)OCO2)NC1=NCCS1,.,6
CCc1ccc(NC(=O)CCN2C(=O)c3ccccc3C2=O)cc1,.,6
O=C(CNC1CCCC1)Nc1ccc(N2CCCC2)cc1,-1.9,5
N/N=C(/C(=O)c1ccccc1)c1ccccc1,.,-3
N#C/C(N=Cc1ccc(Cl)cc1)=C(\C#N)NC(=O)Nc1ccc(OC(F)(F)F)cc1,-2.1,.
COc1cc(C2Nc3cc(Cl)ccc3O2)cc(OC)c1OC (stereo unspecified),.,18
COc1ccc(C(=O)NC(CC(=O)O)c2ccc(OC)cc2)cc1 (stereo unspecified),4.8,16

# The listing continues:
molecule,MgrA-DNA mod,Sa helicase inh
COc1ccc2[nH]c(C(=O)N(C)c3ccc(F)cc3F)cc2c1,-1.7,.
N#Cc1ccccc1OCC(=O)N(Cc1ccccc1)C1C=CS(=O)(=O)C1 (stereo unspecified),.,12
CCOC(=O)N1CCC(NC(=O)Nc2ccc(C)c(Cl)c2)CC1,.,12
CC(=O)Nc1ccncc1NC(C)=O,.,-12
Nc1ccc(-c2cc3ccccc3o2)cc1,-1.1,9
O=C(c1ccccc1F)N1CCN=C1c1ccccc1,1.6,8
Cc1ccc(NC(=O)CN2C(=O)c3ccccc3C2=O)c(C)c1,-1.9,3
COc1ccc(CNC(=O)C(CC(C)C)NS(=O)(=O)c2ccc3nc(C)sc3c2)cc1 (stereo unspecified),.,1
CSc1ccccc1NC(=O)CSc1cccc[n+]1[O-],2.9,19
Cn1c(=N)n(CC(O)c2ccccc2)c2ccccc21 (stereo unspecified),.,12

# (listing goes on)
molecule,MgrA-DNA mod,Sa helicase inh
CC(C)(C)N1CC(OC(=O)c2ccc(Cl)cc2)C1,-3.0,-18
CC(C)CCNC(=O)C1CCN(C(=O)c2cc3sccc3n2C)CC1,13,3
Cc1c(Cc2ccc(Cl)cc2)c(=O)n2c([nH]c3ccccc32)c1C#N,0.1,5
Cn1c(=O)c2c(ncn2CC(=O)NCC#N)n(C)c1=O,.,-48
COC(=O)c1ccc(-c2ccco2)n1CC(=O)NC(C)c1ccccc1 (stereo unspecified),.,20
CCCCNC(=O)C1Cc2ccccc2CN1S(=O)(=O)c1cccs1 (stereo unspecified),.,8
CCCN(CCC)C(=O)c1cccc(S(=O)(=O)N2CC(C)CC(C)C2)c1 (stereo unspecified),-0.3,8
CC(C)/C=C1\CCCC\C1=N/n1cnnc1,-0.2,2
CCOC(=O)c1oc2ccc(Br)cc2c1COC(=O)CN1C(=O)C2CC=CCC2C1=O (stereo unspecified),.,-1
O=C(NC(=S)Nc1cccc(O)c1)C1CCCCC1,.,12

# Next part
molecule,MgrA-DNA mod,Sa helicase inh
COc1cc(/C=C/C(=O)Nc2c3c(nn2C(C)(C)C)CSC3)cc(OC)c1OC,.,0
Cn1c(Cc2cccs2)nnc1SCc1ncc(-c2ccccc2)o1,.,-5
O=C(Nc1ccccc1)OC1CS(=O)(=O)CC1N1CCOCC1 (stereo unspecified),.,7
CCCOc1ccc(C(=O)N2CCOCC2)cc1OC,-0.6,14
CCC(C)NC(=O)c1onc(C)c1Cl (stereo unspecified),-0.5,13
COCCNc1nnc(SCc2nnc(-c3ccc(F)cc3)o2)s1,.,-14
CC1CCCCN1C(=O)NC1(C(F)(F)F)Oc2ccccc2O1 (stereo unspecified),0.2,-3
O=C(Cn1c(=O)n(CCCS(=O)(=O)C2CCCCC2)c(=O)c2ccccc21)Nc1ccc(F)cc1,.,36
CCOC(=O)c1c(C)[nH]c(C2=NNC(=NC)SC2)c1C,.,-1
COc1ccc(C2Nc3ccccc3C(=O)N2c2cccc3ccccc23)cc1CN1C(=O)c2ccccc2C1=O (stereo unspecified),0.4,.

# Next section
molecule,MgrA-DNA mod,Sa helicase inh
c1csc(-c2nnc(SCC3COc4ccccc4O3)n2CC2CCCO2)c1 (stereo unspecified),.,10
O=C(Nn1c(=O)[nH]c2ccccc2c1=O)c1ccco1,1.4,4
COc1ccc(/C=C2/C(=O)N(c3cccc(Cl)c3)N=C2C)cc1,0.4,.
Cc1cn2c(nc1=O)O[C@@H]1C[C@H]2O[C@@H]1CO,.,-27
O=C(O)c1ccc(N2CCCCC2)cc1,-4.8,10
Cc1ccc(C)c(-n2c(SCC(=O)NCC(C)C)nnc2-c2cccnc2)c1,5.0,-6
CC(=O)Nc1sc2c(c1C(c1ccccn1)N1CCN(CCO)CC1)CCCC2 (stereo unspecified),.,-20
CCCC(=O)Nc1ncnc2c1ncn2C1O[C@@H]2COP(=O)(O)O[C@H]2[C@H]1OC(=O)CCC (stereo partly specified),2.8,.
COc1ccc(C(=O)c2ccccc2O)c(O)c1,1.5&1.6,.
CSc1ccc(N=Nc2c(C)[nH]n(C)c2=O)cc1,-0.9,.

# The list goes on:
molecule,MgrA-DNA mod,Sa helicase inh
N#CCC(=O)c1sccc1-n1cccc1,3.0,.
O=C(c1ccc(C(F)(F)F)cc1)n1nccc1-c1cc(-c2ccccc2)no1,.,-13
Cc1ccccc1-c1ocnc1C(=O)Nc1cccnc1,0.3,-14
OC(COCC1COc2ccccc2O1)C[N+]1(Cc2ccccc2)CCCC1 (stereo unspecified),-0.7,-1
O=C(O)CCCC(=O)Nc1nncs1,.,33
CCC(C(=O)Nc1cccc(OC)c1)N1C(=O)CCn2nccc21 (stereo unspecified),.,-6
O=C(Nc1ccc(Cl)cc1)OC1CN(C(c2ccccc2)c2ccccc2)C1,-2.8,.
CC(C)n1c(SCC(=O)O)nc2ccccc21,-5.9,.
COC(=O)CNC(=O)c1ccc(C)c(C)c1,.,-3
COc1cccc(/C=C2/CC(C(C)(C)C)C/C(=C\c3cccc(OC)c3OC)C2=O)c1OC (stereo unspecified),0.3,10

# Remaining list, next part:
molecule,MgrA-DNA mod,Sa helicase inh
CCOc1ccc(-c2c(C#N)c(N)nc3sc(C(=O)Nc4ccc(Br)cc4)c(N)c23)cc1,1.9,.
O=C(Nc1cccnc1Sc1ccc(Cl)cc1)c1ccc(C(F)(F)F)cc1,-1.6,.
Cc1ccc2cc(C#N)c(SCC(=O)Nc3ccccc3N3CCOCC3)nc2c1C,-2.4,2
COc1ccc(-c2noc(CC(=O)N(C)c3ccc(F)cc3)n2)cc1,.,32
Cc1noc(C)c1C(=O)O/N=C(\N)Cc1ccc(-c2csnn2)cc1,.,21
Cc1n[nH]c(=O)nc1NCCCN(C)C,.,16
FC(F)(F)c1ccc(-n2nnnc2-c2ccno2)cc1,-2.5,.
CC1CCc2onc(C(=O)NC3=NN(c4ccccc4)CC3)c2C1 (stereo unspecified),.,31
Cc1ccc2cc3cc(C(=O)NCCC4=CCCCC4)oc3nc2c1,-0.3,9
CCN(CC(=O)NCc1cccs1)C(=O)c1cccc(S(=O)(=O)N(CC)CC)c1,.,-9

# More records follow.
molecule,MgrA-DNA mod,Sa helicase inh
NS(=O)(=O)c1cc(C(=O)O)cs1,.,27
N#CCCN(Cc1cccnc1)C(=S)NC1CCCCC1,.,-1
COc1ccc(C(=O)N(Cc2ccccc2)c2ccccn2)cc1,.,9
COc1ccc(N2C(=O)C(CN3CCN(C)CC3)C2c2ccccc2)cc1 (stereo unspecified),1.8,.
O=C(O/N=C1/CCCc2nonc21)C(F)(F)F,2.5,-12
Cc1sc2ncnc(Sc3ncnc4sc(C)c(C)c34)c2c1C,3.4,7
CCN(C(=O)Cn1ncc(Cl)c(Cl)c1=O)C1CCS(=O)(=O)C1 (stereo unspecified),.,-11
CN1/C(=C/C=C/c2oc3ccccc3[n+]2C)Oc2ccccc21,9.8,-98
CCOC(=O)c1sc(NC(=S)NCc2cc(C)n(C)n2)c(C(=O)OCC)c1C,4.5,11
COc1ccc(-c2cc(C(=O)O)c3c(C)[nH]nc3n2)cc1,.,11

# The list continues.
molecule,MgrA-DNA mod,Sa helicase inh
CCN1CCC(O)(C#Cc2ccccc2)CC1,-0.5,.
COC(=O)CNc1ccccc1OC,.,12
Cc1nc(SCc2ccccc2)n[nH]1,-0.2,19
CCn1c(CC(=O)Nc2cccc(OC)c2)nnc1SCC(=O)c1ccccc1,0.3,-12
O=C(Nc1ccccc1)OC(CSc1ccccn1)CSc1ccccn1,1.8,.
O=C(Nc1cc(C(F)(F)F)cc(C(F)(F)F)c1)C(=S)NCCNc1cccc2ccccc12,7.8,12
NNC(=O)Cc1cccc2ccccc12,-1.3,.
O=C(CSc1nnc(Cn2nnc3ccccc32)o1)N1c2ccccc2CCc2ccccc21,-2.0,19
CCOc1ccc(S(=O)(=O)N/N=C(\C)C2CCCCC2)cc1,.,14
CCOc1ccccc1N1CC(C(=O)O)CC1=O (stereo unspecified),-0.2,-1

# Among those listed so far, these contain a COOH group:
molecule,MgrA-DNA mod,Sa helicase inh
CCc1ccc(-c2[nH]nc3nc(-c4ccc(O)cc4)cc(C(=O)O)c23)cc1,.,-2
O=C(O)/C=C/C=C/c1ccc(Cl)cc1,5.7,-4
COc1ccc(C(=O)NC(CC(=O)O)c2ccc(OC)cc2)cc1 (stereo unspecified),4.8,16
O=C(O)c1ccc(N2CCCCC2)cc1,-4.8,10
O=C(O)CCCC(=O)Nc1nncs1,.,33
CC(C)n1c(SCC(=O)O)nc2ccccc21,-5.9,.
NS(=O)(=O)c1cc(C(=O)O)cs1,.,27
COc1ccc(-c2cc(C(=O)O)c3c(C)[nH]nc3n2)cc1,.,11
CCOc1ccccc1N1CC(C(=O)O)CC1=O (stereo unspecified),-0.2,-1

# (listing goes on)
molecule,MgrA-DNA mod,Sa helicase inh
CCOC(=O)N/N=C/c1ccco1,-2.1,.
Cn1c(-c2cccs2)c(CNCc2ccccc2)c2ccccc21,.,9
CCCC1NC(=S)N(c2ccccc2)C1=O (stereo unspecified),.,9
CCOC(=O)c1ccccc1OCc1cc(C2Nc3ccccc3C(=O)N2c2ccc(F)cc2)ccc1OC (stereo unspecified),-0.4,.
CCOC(=O)c1c(C)n(-c2ccccc2)c2c1cc(OC(=O)c1cccc([N+](=O)[O-])c1)c1ccccc12,-2.3,.
O=C(c1cccn1-c1nnc(N2CCCCC2)s1)N1CCCC1,.,9
O=C(CSc1nc2ccccc2c(=O)n1-c1cccc(S(=O)(=O)N2CCCC2)c1)c1ccc(O)cc1O,.,12
Cc1ccc(C(=O)CSc2nc3cc(C(F)(F)F)ccc3n2C(C)C)cc1,-1.5,.
CN1CCCN=C1/C=C/c1cccs1,-1.9&-2.2,16
CN(CCO)c1ccc(C#N)cn1,-0.1,.
